NPYLR7 ag – activates Aedes aegypti NPYLR7 receptor; HEK293T NPYLR7/Galpha15, GCaMP6s calcium fluorescence; activation, % at 10 µM; actives 0.15% (n = 270,000); in the data active = activation above about 40%;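 also: 0% = vehicle and 100% = reference agonist at the receptor; some compounds past the cut are filed as inactive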
NPYLR7 ag max-min – second read-out of NPYLR7 ag, no call of its own (marks repeat the call); activation, %; measured here: Max-Min RFU normalised activation; some inactives read as strong as hits;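 span of the calcium signal over five minutes; 0% = vehicle and 100% = native peptide agonist; compound fluorescence can raise it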
An asterisk follows results filed as active; & = joins results of further samples. The list is partial. The share of hits here may be higher or lower than overall.

SMILES	NPYLR7 ag	NPYLR7 ag max-min
Cc1nn(C)c(C)c1CCC(=O)N(C)Cc1nc2ccc(Cl)cc2[nH]1	-6	-11
Cc1cc2nc(-c3ccccc3)c(N3CCCN(C(=O)c4ccc(C(F)(F)F)cc4F)CC3)nc2cc1C	5	1
COc1ccc(CNC23CC4CC(CC(C4)C2)C3)c(OC)c1C	2	0
Cc1ccccc1Cn1c(CCNC(=O)C(C)C)nc2ccccc21	-11	-13
O=C(Cc1ccccc1)Nc1ccnn1C1CCN(Cc2ccon2)CC1	-5	-7
COc1cc(Br)c(CSc2n[nH]c(=O)n2C2CC2)cc1OC	-11	-8
COc1ccccc1CNC(=O)CN(C)Cc1ncc(C)[nH]1	2	9
COc1ccc(C(N)=S)cc1OC	-1	-3
O=C(c1ccccc1)N(Cc1ccc(OS(=O)(=O)c2cccc(C(F)(F)F)c2)cc1)Cc1ccco1	-2	6
Cc1cccc2c1NC1(CCN(Cc3ccc([N+](=O)[O-])cc3)CC1)NC2=O	1	10
CC(C)Cc1nc(N2CCN(C(=O)CCl)CC2)c2c(-c3cccc(C(F)(F)F)c3)noc2n1	-7	15
CC(C)(C)c1cc2nc(-c3ccccc3F)cc(C(=O)NCCc3ccccn3)n2n1	4	13
Cc1oc(C)c(C(=O)NCc2ccnc(N(C)C)c2)c1C	-2	-1
Cc1cccc(-n2c(-c3ccc(Cl)cc3)cc(C(=O)NCCCN3CCOCC3)c2C)c1	-8	-13
CCOC(=O)C(c1ccc(OC)c(OC)c1)C1C=CC(NC(=O)c2ccc3c(c2)OCO3)C1 (stereo not given)	26	23

Of the compounds above, these contain a furan ring, fused or not:
SMILES	NPYLR7 ag	NPYLR7 ag max-min
O=C(c1ccccc1)N(Cc1ccc(OS(=O)(=O)c2cccc(C(F)(F)F)c2)cc1)Cc1ccco1	-2	6
Cc1oc(C)c(C(=O)NCc2ccnc(N(C)C)c2)c1C	-2	-1

Other structures follow.
SMILES	NPYLR7 ag	NPYLR7 ag max-min
COc1ccccc1-c1noc(CSc2nnc(-c3ccc4c(c3)OCO4)o2)n1	6	4
Cc1ccnc(NC(=O)Cn2nc([N+](=O)[O-])cc2C)c1	-4	-9
O=Cc1csc(COc2ccccc2)n1	5	0
FC(F)(F)c1nc(-c2cc(NCc3ccncc3)nc3[nH]ccc23)n[nH]1	13	3
CCc1ccccc1NC(=O)CSc1ncc(S(=O)(=O)c2ccc(C)c(Cl)c2)c(=O)[nH]1	1	-2
Cc1cccc(NS(=O)(=O)c2c(C)nn(C)c2Cl)c1C(=O)O	0	7
COC(=O)C(c1ccc(Br)cc1)N(C)C(=O)C1CCC1 (stereo not given)	1	10
CC(C)Cc1cnc2c(c1SCC(=O)Nc1cccc(C(F)(F)F)c1)c(=O)n(C)c(=O)n2C	1	3
Cc1ccc(C(=O)N(CCCN(C)C)c2nc3ccc(C)cc3s2)cc1	7	7
Cc1ccc(-c2ccc(C(=O)NCCCc3ccccn3)cn2)c(-n2cccn2)c1	-6	-9
Nc1nccnc1C(=O)Nc1ncc(Cc2cc(Cl)cc(Cl)c2)s1	9	5
CCCCCn1c(SCC(N)=O)nc2c1c(=O)[nH]c(=O)n2C	0	-1
CSc1nn(CN2CCN(c3ccccn3)CC2)c(=S)s1	-2	4
C=CCN(CC=C)C(=O)CN1[C@@H]2CC[C@H]1CC(O)C2 (stereo not given in full)	1	-4
NC(=O)N1CCCC1COC(=O)C1CC1c1c(F)cccc1Cl (stereo not given)	-5	25
Cc1cc(OC(=O)CCCc2ccccc2)c([N+](=O)[O-])c(=O)[nH]1	-6	-5
C[C@@]12CO[C@H](c3ccccc3)C[C@@H]1C[C@H](N1CCN(CC(c3ccccc3)c3ccccc3)CC1)C2	2	11
NS(=O)(=O)c1ccc(NC(=O)CCCn2nc(-c3cccnc3)ccc2=O)cc1	12	6
O=C(NCc1ccccn1)C1=COCCO1	-5	-5
O=C(Nc1ccccc1O)c1cc(S(=O)(=O)N2CCCCCC2)ccc1Cl	-7	-13
O=C1c2ccccc2C(=O)N1CC(O)COc1ccc(F)cc1 (stereo not given)	-8	-9
CC(C)NC(=O)c1cc(NC(=O)c2ccc(Cl)cc2Cl)ccc1N1CCCC1	3	9
Cc1cc(C)nc(SCCn2c(Br)nc3c2c(=O)n(C)c(=O)n3C)n1	12	5
CN1C(=S)N2CCCN2C1c1ccccc1 (stereo not given)	2	9
CCCCCCNC(=O)c1cc(-c2ccccc2)n(-c2ccccc2OC)c1C	5	5
CC(Oc1cccc(Cl)c1)C(=O)N1CCN(S(=O)(=O)c2ccccc2)CC1 (stereo not given)	12	16
CCOc1ccccc1NC(=O)CC(=O)N(C)Cc1snnc1C	6	3
COc1ccccc1NC(=O)N1CCC(Cc2ccc(F)cc2)CC1	12	-5
Cc1cn(CCNC(=O)Cc2c(C)[nH]c3c(C)ccc(C)c23)nn1	-4	-4
COc1cc(C)ccc1Oc1ccc(NC(=O)N2CCOC(C)C2)cn1 (stereo not given)	0	-2
C1CN(CC23CC4CCC(CC(C4)C2)C3)CCO1	-6	-8
O=C(CSc1nc(=O)n(CCN2CCOCC2)c2c1CCCC2)Nc1cccc2ccccc12	-1	7
COc1cc(C#N)ccc1OC(C)C(=O)c1ccc(CNC(C)=O)s1 (stereo not given)	2	4
O=c1[nH]nc(CCc2ccccc2O)n1Cc1ccco1	25	15
CN(CC1COc2ccccc2O1)C(=S)NC1CCCCC1 (stereo not given)	4	15
COC(=O)c1cc(OC)cc(C(=O)Nc2cnc3n2CCCC3)c1	6	5
COc1ccc(OC)c(C2CCCN2Cn2nc(-c3ccccc3F)n(C)c2=S)c1 (stereo not given)	0	-3
Cc1cc(NC(=O)/C=C/c2cc3cnn(C(C)C)c3[nH]c2=O)n(C)n1	3	3
CC(C)COc1nc(-c2cccs2)n(-c2ccc(NC(=O)c3ccco3)cc2)n1	15	17
NC(c1ccccc1)c1cc2ccccc2o1 (stereo not given)	1	2
Cc1cc[n+](-c2nc3ccccc3nc2NS(=O)(=O)c2ccccc2)cc1	10	16
CCOC(=O)Cn1cnc2c(nnn2Cc2ccc(F)cc2)c1=O	9	11
CCc1cccc(Oc2cc(C(F)(F)F)nc(SCc3ccccc3C)n2)c1	-1	12
COCCNC(=O)C1COC2(CCN(C(=O)c3ccccc3Cl)CC2)N1C(=O)c1cccc(C)c1 (stereo not given)	0	5
O=C(CCN1CCc2sccc2C1c1ccccc1)N1CCN(C(=O)c2ccc3c(c2)OCO3)CC1 (stereo not given)	6	0
COCCNCc1c(-c2ccccc2)noc1N1CCc2ccccc2C1	26	17
CCCc1nc(C)cc(N(C)CC2CC(=O)N(C(C)(C)C)C2)n1 (stereo not given)	19&-1	6&-2
CCCCN1C(=O)C(=Nc2cccc3cnccc23)c2ccccc21	16	15
COc1ccc(CC(=O)N2CC(=O)N(C3CCCCC3)CC(O)C2)cc1 (stereo not given)	2	14
O=C1C(C2(O)C(=O)Nc3ccccc32)CCCC1C1(O)C(=O)Nc2ccccc21 (stereo not given)	3	2
Cc1ccc(-n2nnc3c(=O)n(CC#N)cnc32)cc1Cl	-4	-8
CC1C(=O)Nc2cc(C(=O)N(C)Cc3ccccc3Cl)ccc2N1C (stereo not given)	2	0
CCOc1ccc2nc(S(=O)(=O)NC(=O)C3(C)CCN3C(=O)Cc3cccs3)sc2c1 (stereo not given)	3	1
CCN(CC)C(=O)c1sc(NC(=O)CCCOc2ccc(Cl)cc2C)c(C(=O)OC)c1C	-5	-10
Cn1c(CCC(=O)N2CCCC(N3CCCC3)C2)nc2cccnc21 (stereo not given)	6	2
CCOC(=O)C1(Cc2cccc(OC)c2)CCCN(Cc2ccc(N3CCNC3=O)cc2)C1 (stereo not given)	9	-1
C=C(C)COc1cccc(C(=O)N(CCO)C2(C)CCS(=O)(=O)C2)c1 (stereo not given)	1	-4
Cc1c(-c2ccc(Cl)cc2)c(=O)oc2ccc(O)cc12	-7	-1
COc1ccc(CCN(C)C(=O)c2ccc(Br)c(C)c2)cc1OC	13	6
CCOc1ccccc1OCC(=O)NNC(=O)c1cc(F)c(F)cc1Cl	10	10

Remaining list, next part
SMILES	NPYLR7 ag	NPYLR7 ag max-min
CN1CCN(n2c3c(c(SCC(=O)Nc4ccccc4[N+](=O)[O-])nc2=O)CCC3)CC1	2	-3
COc1ccccc1C(C)N(C)C(=O)/C=C/c1ccccc1F (stereo not given)	5	6
Cc1ccsc1-c1cn(C(C(=O)N(C)C)c2ccccc2)nn1 (stereo not given)	12	-3
O=C(NC1CCOCC1)C1CCCN(C2CCN(Cc3ccccc3)CC2)C1 (stereo not given)	-2	-5
CCN1CCC(N(C)C(=O)Nc2ccccc2F)C1 (stereo not given)	4	2
COC(=O)C(CCSC)NC(=O)c1ccc(S(=O)(=O)C(F)F)cc1 (stereo not given)	-4	5
CC1=CC(C)C(C(=O)O)C(C(=O)O)C1 (stereo not given)	43*	70*
Cc1ccc(CN(Cc2ccc(F)cc2)C(=O)CN(CC2CCCO2)C(=O)Cc2ccccc2)s1 (stereo not given)	-10	-19
O=C(Cn1nnnc1CN1CCCCCC1)NC1CCc2ccccc21 (stereo not given)	3	0
Cc1nc(-n2ccc3nc4ccn(Cc5ccccc5)c(=O)c4cc3c2=O)n[nH]1	-11	-14
Nc1nc(-c2cc(I)c(O)c(I)c2)cs1	-2	0
CCNC(=O)CNC(=O)COc1ccc(F)cc1Br	-5	6
O=C(c1cccs1)N(Cc1ccc(C(F)(F)F)cc1)CC1CC(c2ccc(Cl)cc2)=NO1 (stereo not given)	13	10
Cc1ccc([N+](=O)[O-])cc1S(=O)(=O)NCc1ccc2c(c1)OCO2	5	0
Cc1ccccc1-c1nc2oc3ccccc3c(=O)c2c(=O)n1-c1ccccc1	4	2
CC1(C(=O)NCc2cccnc2)CCN1C(=O)CCc1ccc(Cl)cc1Cl (stereo not given)	1	0
Cc1cc2c(SCC(=O)Nc3cccc(F)c3)ncnc2s1	-8	-10
COc1ccc(CC2=NOC(CNC(=O)CSc3ccccn3)C2)cc1 (stereo not given)	6	3
O=C(C1CCCC1)N(CCN1CCCCC1)CC1CCCN(C2CCCC2)C1 (stereo not given)	-6	-9
CCOC(=O)C1=C(CC)NC2=C(C(=O)CC(C)(C)C2)C1c1ccc(N(C)C)cc1 (stereo not given)	3	0
CCc1nc2c(OCc3cccc(OC)c3)cccn2c1N(C)C(=O)c1ccncc1	-5	-8
COc1ccc2nc(-c3ccc(C)c(NS(=O)(=O)c4cc(C)ccc4OC)c3)cn2n1	-11	-15
Cc1cccc(NC(=O)NCc2ccc3c(c2)cc(C)n3C)c1	9	11
O=C(COc1ccccc1-c1ccccc1)NCC1(N2CCOCC2)CCCCC1	2	2
CCCCN(Cc1cccn1Cc1ccc(Br)cc1)C(=O)CN(CCOC)C(=O)c1cc(C(F)(F)F)cc(C(F)(F)F)c1	1	13
CCN(CC)C(=O)C(NC(=O)c1cccs1)C1CCN(C(=O)c2ccccc2C)CC1 (stereo not given)	5	2
COc1ccc2[nH]cc(C3CCN(S(=O)(=O)c4ccc(Br)c(Br)c4)CC3)c2c1	18	9
CC(C)(Oc1ccc(Cl)cc1)C(=O)N1CC(=O)N2CCc3c(F)cccc3C2C1 (stereo not given)	0	15
CCC(C)Nc1nnc(SC2CCCCNC2=O)s1 (stereo not given)	-5	-5
Cc1ccccc1-n1nc(CC(C)C)c(C(=O)NCc2ccccn2)c1C	-6	-6
COc1cc(OC)cc(C(=O)N2CCCC(C(=O)NC3CCCC[C@H]3NC(=O)c3ccc(F)cc3)C2)c1 (stereo not given in full)	4	15
CC(C)(C)NC(=O)CSc1nc2ccccc2c(=O)n1CCCO	-5	-10
COC(=O)c1c(C)nsc1NC(=O)N1CCCC(CNC(N)=O)C1 (stereo not given)	1	22
COCC(=O)Nc1c(-c2ccccc2C)nc2cc(C)ccn12	-2	6
CC1CC(C)CN(C(=O)C(C)N2CCCC(C(=O)N3CCCC3)C2)C1 (stereo not given)	6	6
C/C=C(\C)C(=O)NCC1Cc2cccc(-c3ncccn3)c2O1 (stereo not given)	28	9
CC(=NN1CCN(Cc2ccc(C)cc2C)CC1)c1ccc(Cl)cc1	1	-4
Cn1cnc(-c2ccccc2)c1-c1ccc(-n2cncn2)cc1	4	3
CC(O)CN1CCN(C(=O)c2ccc(-n3ccnc3)cc2)CC1 (stereo not given)	4	2
C=CCN(Cc1ccc(Cl)s1)CC(O)c1cc(C)ccc1OC (stereo not given)	-5	-7
Cn1ccc(C(=O)NCCc2ccc(OCc3ccccc3)cc2)cc1=O	8	2

Grouped by structure: those above with an aryl thioether with sulfur outside any ring (14)
SMILES	NPYLR7 ag	NPYLR7 ag max-min
COc1cc(Br)c(CSc2n[nH]c(=O)n2C2CC2)cc1OC	-11	-8
COc1ccccc1-c1noc(CSc2nnc(-c3ccc4c(c3)OCO4)o2)n1	6	4
CCc1ccccc1NC(=O)CSc1ncc(S(=O)(=O)c2ccc(C)c(Cl)c2)c(=O)[nH]1	1	-2
CC(C)Cc1cnc2c(c1SCC(=O)Nc1cccc(C(F)(F)F)c1)c(=O)n(C)c(=O)n2C	1	3
CCCCCn1c(SCC(N)=O)nc2c1c(=O)[nH]c(=O)n2C	0	-1
CSc1nn(CN2CCN(c3ccccn3)CC2)c(=S)s1	-2	4
Cc1cc(C)nc(SCCn2c(Br)nc3c2c(=O)n(C)c(=O)n3C)n1	12	5
O=C(CSc1nc(=O)n(CCN2CCOCC2)c2c1CCCC2)Nc1cccc2ccccc12	-1	7
CCc1cccc(Oc2cc(C(F)(F)F)nc(SCc3ccccc3C)n2)c1	-1	12
CN1CCN(n2c3c(c(SCC(=O)Nc4ccccc4[N+](=O)[O-])nc2=O)CCC3)CC1	2	-3
Cc1cc2c(SCC(=O)Nc3cccc(F)c3)ncnc2s1	-8	-10
COc1ccc(CC2=NOC(CNC(=O)CSc3ccccn3)C2)cc1 (stereo not given)	6	3
CCC(C)Nc1nnc(SC2CCCCNC2=O)s1 (stereo not given)	-5	-5
CC(C)(C)NC(=O)CSc1nc2ccccc2c(=O)n1CCCO	-5	-10

Screening data deposited in PubChem BioAssay by Fisher Drug Discovery Resource Center.
